ClpP mod: qHTS Assay for Activators of ClpP. ATP-dependent Clp protease proteolytic subunit (Bacillus subtilis (strain 168)), P80244. purified B. subtilis ClpP, FRET peptide cleavage, 20 min. Potency, µM (titrated, usually from 57.5 µM), without a hit: at the highest dose activity change, negative = active. 340,000 compounds, 1.9% hits. AID 651965, 2013; active = well fitted falling curve with a large enough effect; inconclusive = small, poorly fitted or top-dose-only effect; inactive = no such curve, though single readings can be large or run the other way; also: potency is read from the fitted curve at half-maximal effect; the source files actives as falling curves though it sought activators and does not explain the sign; nearly all actives have a fitted effect of over 65% in size; many hits overshoot -100%
Target sequence (P80244 whole entry, looked up): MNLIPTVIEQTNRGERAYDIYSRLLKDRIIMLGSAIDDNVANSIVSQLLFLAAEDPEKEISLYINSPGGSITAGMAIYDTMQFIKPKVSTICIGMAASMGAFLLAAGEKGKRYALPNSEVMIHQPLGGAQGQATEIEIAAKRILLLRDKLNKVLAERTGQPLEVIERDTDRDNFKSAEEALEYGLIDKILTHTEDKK
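Purified B. subtilis ClpP, 10 microg/mL final in Tris/HCl pH8 with KCl, BSA, glycerol and Tween-20, cleaved an Abz/nitrotyrosine-quenched decapeptide. Fluorescence (ex 320, em 430) was read at 0 and 20 min at room temperature. Delta was normalized to 5.8 microM ADEP and DMSO/no-enzyme controls.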
Sfp inh: Sfp phosphopantetheinyl transferase inhibition; Q9F4F7; 310,000 compounds, 3.5% hits; Potency, µM, inactives show max response, negative = inhibition, most hits filed as inhibitors; Biochemical Sfp PPTase activity, qHTS; active = well fitted inhibition curve with a large enough effect; inconclusive = small, poorly fitted or top-dose-only effect, or another doubt; inactive = no such curve, though single readings can be large or run the other way;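 also: the enzyme is Sfp with the accession as filed and its product quenches rhodamine fluorescence; potency is read from the fitted curve at half-maximal effect; 0% = enzyme reaction without inhibitor and -100% = no enzyme wells; top concentration of the series not given in the record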
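After 15 min at room temperature with compound, 15 nM Sfp received 5 uM rhodamine-CoA plus 12.5 uM BHQ-2-ybbR (50 mM Hepes pH 7.6, 10 mM MgCl2). Rate came from the fluorescence difference over 30 min, ex 525/em 598 nm.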
gsp ag: agonists of gsp mutant (McCune-Albright syndrome); gsp mutant cells, cAMP HTRF, 30 min; control for the full effect not named in the record; Potency, µM (highest dose often 76.9 µM), for inactives: at the top dose activation (cAMP increase), hits mostly activators; 340,000 compounds, 0.13% hits; AID 624287; active = well fitted activation curve with a large enough effect; inconclusive = small, poorly fitted or top-dose-only effect, or another doubt; inactive = no such curve, though single readings can be large or run the other way; cell line not stated here;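 also: phosphodiesterase inhibitor Ro 20-1724 added with compounds to block cAMP breakdown; potency is read from the fitted curve at half-maximal effect; nearly all actives have a fitted effect of over 60% in size; about a fifth of the inactives were tested at one dose only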
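Cells in DMEM/10% FBS with G418 were pretreated with compounds in DMSO plus […] (300 uM stock) for 30 min at 37C. cAMP was measured by HTRF (cAMP-d2 plus anti-cAMP antibody-K) after 30 min at room temperature.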
gsp antag: gsp mutant antagonism; gsp-mutant cells, cAMP HTRF, 30 min; control for the full effect not named in the record; 340,000 compounds, 0.4% hits; Potency, µM (doses to about 76.9 µM), for inactives: at the highest dose activity change, negative = inhibition, most hits filed as inhibitors; active = falling curve of any shape with a large fitted effect; inconclusive = falling curve, mostly with a smaller effect; inactive = flat or rising curve; cell line not stated here;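 also: intracellular cAMP measured with PDE inhibitor Ro 20-1724 present during compound exposure; potency is read from the fitted curve at half-maximal effect; % is scaled to controls: 0 for no effect and ±100 for the full control effect; nearly all actives have a fitted effect of over 65% in size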
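Cells in G418 medium, seeded 16-24 h, 37C; buffer exchange to DPBS + 1 mM CaCl2, 0.5 mM MgCl2, 0.05% BSA; cpds in DMSO + […] (300 uM stock), 30 min 37C; HTRF cAMP detection.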
TRPV1 potentiator: human TRPV1 potentiation | Q8NER1 | TRPV1-expressing cells, Fluo-8 calcium influx, capsaicin EC20 potentiation; host cell line not named in the record; control for the full effect not named in the record | potentiation, % at 8.33 µM | 320,000 compounds, 0.02% hits | AID 540277; active means potentiation above 80%; inconclusive means 30% to 80%; inactive means below 30%; also: 0% is about no effect
Target sequence (Q8NER1 whole entry, looked up): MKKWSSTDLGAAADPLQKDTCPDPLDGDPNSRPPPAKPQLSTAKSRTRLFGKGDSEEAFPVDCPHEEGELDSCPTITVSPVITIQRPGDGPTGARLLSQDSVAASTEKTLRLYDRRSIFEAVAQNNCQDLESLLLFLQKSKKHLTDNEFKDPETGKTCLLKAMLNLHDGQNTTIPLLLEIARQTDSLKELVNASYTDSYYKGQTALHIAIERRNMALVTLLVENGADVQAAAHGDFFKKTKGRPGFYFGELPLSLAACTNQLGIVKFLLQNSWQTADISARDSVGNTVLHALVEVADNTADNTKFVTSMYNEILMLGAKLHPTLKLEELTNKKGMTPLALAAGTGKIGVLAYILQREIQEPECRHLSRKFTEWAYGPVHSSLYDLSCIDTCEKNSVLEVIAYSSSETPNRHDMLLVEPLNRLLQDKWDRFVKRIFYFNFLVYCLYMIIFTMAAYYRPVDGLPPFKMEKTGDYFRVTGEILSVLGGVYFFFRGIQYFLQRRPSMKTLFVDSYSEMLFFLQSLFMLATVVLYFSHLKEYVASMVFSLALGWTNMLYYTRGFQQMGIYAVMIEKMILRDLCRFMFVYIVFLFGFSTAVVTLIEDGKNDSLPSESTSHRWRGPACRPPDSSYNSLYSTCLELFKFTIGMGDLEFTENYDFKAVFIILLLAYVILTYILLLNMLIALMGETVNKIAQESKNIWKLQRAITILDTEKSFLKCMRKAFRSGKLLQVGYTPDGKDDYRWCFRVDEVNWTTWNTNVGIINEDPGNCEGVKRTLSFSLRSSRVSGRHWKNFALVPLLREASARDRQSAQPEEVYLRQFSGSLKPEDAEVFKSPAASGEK
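TRPV1-expressing cells were cultured overnight at 35.5C and loaded with Fluo-8 calcium dye for 40 to 90 min at room temperature. After a 10 s baseline, compound was added and calcium influx was read kinetically for 3 min (ex 480/em 520 nm).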
D2 PAM: positive allosteric modulators of human D2 dopamine receptor; P14416; DiscoveRx D2 beta-arrestin cells, luminescence, 90 min; 100% = 57 uM dopamine signal; potentiation, % (test concentration not listed); 360,000 compounds, 0.23% hits; active = potentiation of 50% or more; inconclusive = 30% to 50%; inactive = 30% or less;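 also: compound concentration not given in the record; tested on top of an EC20 dose of dopamine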
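D2 cells co-treated with compound plus 50 nM dopamine (EC20) for 90 min at 37 deg C to detect potentiation. Beta-arrestin recruitment was read as enzyme-fragment luminescence after 1 h at ambient temperature. Full response was set by 57 uM dopamine.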
Menin MLL FP FL: displaces fluorescein MLL peptide from human menin; Fluorescence polarization, fluorescein-MLL peptide displacement from menin; FP activity change, % at 61.4 µM; 290,000 tested, under 10 active; AID 1766; inconclusive = falling polarisation curve, or a change in total fluorescence; inactive = total fluorescence flat and polarisation flat or rising; no compound was filed as active; the % refers to the polarisation; negative = inhibition;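 also: % of control where 0% means no effect; inhibitors lower the polarisation; unlabelled MLL peptide was the positive control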
Starred values were filed as active, the others as inactive; ? = inconclusive; / = not tested or not shown; [ ] = another dose, or the depositor's remark.

SMILES	ClpP mod	Sfp inh	gsp ag	gsp antag	TRPV1 potentiator	D2 PAM	Menin MLL FP FL
Cc1ccccc1NC(=S)NC1CCN(Cc2ccccc2)CC1	1.1%	-1%	-9%	7%	6	-39	2.5
O=C(N/N=C/c1ccc(-c2ccccc2[N+](=O)[O-])o1)[C@H]1C[C@@H]1c1ccccc1	-13%	25µM*	11%	4%	0	-14	/
c1ccc2c(c1)nc(N1CCCCCC1)c1ccccc12	/	-2%	25%	-13%	-5	-17	-2.3
CC(C)[C@H](NC(=O)c1cccc(S(=O)(=O)N2CCOCC2)c1)C(=O)NCc1ccc(F)cc1	4.2%	/	-59%[inhibitor]	7%	/	-3	/
Cc1ccc(S(=O)(=O)N(C)C)cc1-n1c(SCC(=O)Nc2ccccc2)nc2ccccc2c1=O	-2.3%	4%	1%	4%	21	1	-0.8
Cn1ncc([N+](=O)[O-])c1C(=O)Nc1ccc(-c2nc3ccccc3o2)cc1	1.1%	10%	5%	-11%	4	-9	0.3
CSc1nc(SCCO)c2sc3nc(-c4ccco4)c4c(c3c2n1)CC(C)(C)OC4	7.4%	20µM*	1%	-3%	-1	-12	?
CCc1cc2c(N=Nc3c(O)[nH]c4ccccc34)ncnc2s1	-1.3%	-1%	-1%	8%	9	-10	3.5
O=C(Nc1ccc2ccccc2c1)c1ccc(Cl)cc1	-3.5%	5%	-13%	2%	?	-16	-1.5
CC(=NCCc1c(C)[nH]c2ccc(C)cc12)C1=C(O)CC(c2ccccc2)CC1=O (stereo not given)	1.6%	1%	-3%	-17%	11	-15	5.3
Cc1ccc(C(=O)n2c(-c3ccccc3)cnc2SCC(=O)Nc2ccccc2)cc1	-20%	7%	0%	-39%	4	4	3.8
CC(=O)Nc1ccc(C2NC(=O)c3ccccc3O2)cc1 (stereo not given)	?	1%	-6%	10%	15	-9	0.5
COc1ccc(CN2C(=O)c3ccccc3C2=O)cc1C(=O)OCC(=O)NC1CCCCC1	1.4%	-17%	-10%[15.4 µM]	7%	4	-5	3.4
CCCN1CCC(=NNc2ccc(C(=O)O)cc2)CC1	-0.1%	?	10%[15.4 µM]	-16%	3	7	-6.9
COc1cccc(C(=O)Nc2ccc(Cl)c(C(F)(F)F)c2)c1	-0.9%	25%	12%	?	-7	-21	6.3
CC1=C(C(N)=O)C(c2cccnc2)n2nc(-c3cccc(C)c3)nc2N1 (stereo not given)	32µM*	-2%	-42%[inhibitor]	-2%	-11	-3	-0.4
C=CCOc1ccc(CNn2cn[nH]c2=S)cc1	-1.5%	-7%	-25%	7%	-8	-14	1.3
Cc1ccc(S(=O)(=O)N2CCC(C(=O)N[C@@H](C)C(=O)Nc3ccc(F)cc3)CC2)cc1	-2.0%	0%	5%	10%	8	-6	1.3
COC(=O)C(Cc1c[nH]c2ccccc12)NC(=O)c1cncc(Br)c1 (stereo not given)	3.8%	8%	36%	1%	?	-5	-12
COc1ccc(CCNC(=O)c2cc(C3CC3)on2)cc1OC	0.1%	1%	?	10%	-11	-3	-0.6
COc1ccc(S(=O)(=O)N(C)C[C@H]2Oc3c(NS(=O)(=O)c4cn(C)cn4)cccc3C(=O)N([C@H](C)CO)C[C@@H]2C)cc1	-2.6%	/	/	-2%	/	5	/
O=C(Nc1cccc(-c2cn3cccnc3n2)c1)Nc1ccccc1F	/	11%	1%[15.4 µM]	-10%	8	9	-0.3
Cc1cn(C(=O)c2ccccc2)c(=S)n1-c1ccc(Cl)cc1	-11%	10%	-14%	3%	4	-11	5.6
COc1ccc(C)cc1-n1nnnc1SCc1nc2ccccc2s1	0.6%	?	-26%	?	0	-6	-0.1
Cc1onc(-c2ccccc2)c1C(=O)N=C(N)c1ccc(Cl)cc1	/	13%	6%[15.4 µM]	3%	9	-9	-1.7

Additional entries.
SMILES	ClpP mod	Sfp inh	gsp ag	gsp antag	TRPV1 potentiator	D2 PAM	Menin MLL FP FL
O=C(CCCN1C(=O)c2ccccc2C1=O)Nc1nncs1	?	27%	?	8%	23	-11	3.8
Cc1ccc(C(C)C)c(OCCCCCN2CCOCC2)c1	/	-21%	0%	11%	-4	-13	0.1
CCOc1ccc(N(CC(=O)NC2CCCCC2)C(=O)CCC(=O)Nc2ccccn2)cc1	/	0%	-2%[15.4 µM]	17%	2	-3	-4.7
CCCOc1ccc(N2C(=O)CC(N3CCC(c4nncn4CC)CC3)C2=O)cc1 (stereo not given)	0.6%	3%	2%	-1%	-8	-4	7.7
O=Cc1ccc(OCC(=O)N2CCOCC2)cc1	0.2%	5%	-5%[15.4 µM]	-10%	2	-6	1.5
O=C1c2oc3ccccc3c(=O)c2C(c2cccs2)N1CCCN1CCOCC1 (stereo not given)	-6.7%	?	-8%	-5%	-1	1	?
CN(/C=C/C(=C\C=[N+](C)c1ccccc1)OCCCS(=O)(=O)[O-])c1ccccc1	-2.8%	79µM*	5%[15.4 µM]	2%	-7	3	?
Cc1ccc(C(=O)C2CCNCC2)cc1	-1.7%	-3%	-1%	16%	2	-33	5.4
CC(C)Sc1nc(N)c2c3c(sc2n1)CN(C)CC3	28µM*	5%	?	8%	-14	-10	6.7
COc1ccccc1NC(=S)Nc1ccccn1	-0.9%	-1%	?	0%	13	6	4.8
COc1ccc(OCC(=O)NC(=S)Nc2ccc(N3CCOCC3)c(Cl)c2)cc1	0.3%	-26%	?	?	30	2	3.8
CCC1CCCCN1C(=O)Cn1nc([N+](=O)[O-])c(Cl)c1C (stereo not given)	/	19%	3%	2%	-10	-2	-5.9
Cc1cccc(Nc2nc(-c3ccc(F)c(C)c3)cs2)n1	/	-18%	-3%	7%	11	-1	3.1
Cn1nc(C(F)(F)F)cc1C(=O)Nc1ccc(-c2ccno2)cc1	-17%	0%	?	-6%	-13	0	/
CCOC(=O)C1=C(C)NC(C)=C(C(=O)OCC)C1C(=O)OCC(=O)NCCc1ccc(S(N)(=O)=O)cc1	?	/	-101%[inhibitor]	11%	-12	13	/
CCCC(=O)N1CCN(c2ccc(NC(=O)c3ccc(N4CCCC4)c([N+](=O)[O-])c3)cc2Cl)CC1	/	/	3%[15.4 µM]	10%	/	-3	/
O=C(c1ccccc1)C(C(=O)N1CCCCC1)n1ccccc1=O (stereo not given)	-0.3%	19%	4%	2%	8	-4	-0.9
CC1CSC(N(C(=O)c2ccc(S(C)(=O)=O)cc2)c2ccc(Cl)cc2)=N1 (stereo not given)	-0.4%	?	-6%	-12%	20	-5	/
CC1CN(c2ccc(Cl)nn2)CC(C)O1 (stereo not given)	0.7%	-1%	0%	9%	-29	-2	1.7
COc1ccc(CNC(=O)CSc2nc3ccc(OC)cc3[nH]2)cc1	/	15%	-50%[inhibitor]	5%	-21	-3	5.7
COc1ccc(N2C(=O)/C(=C/c3cccs3)NC2=S)cc1	0.5%	10µM*	5%	-24%	-3	-15	12
COc1cccc(C(=O)Nc2nc(C)cs2)c1	2.0%	6%	-17%	14%	13	-10	2.6
COCCNc1oc(/C=C/c2ccc(F)cc2)nc1S(=O)(=O)c1ccccc1	4.3%	-7%	-28%	?	6	-21	-3.1
CC1(C)C2([N+](=O)[O-])CN3CC1([N+](=O)[O-])CN(C2)C31CCCC1	-1.0%	10%	-5%	1%	2	-7	1.2
O=C(NC(=S)Nc1ccc(CN2CCOCC2)cc1)c1ccc(-c2cccc(Cl)c2)o1	8.9%	-2%	25%	-5%	0	-4	6.0

(listing goes on)
SMILES	ClpP mod	Sfp inh	gsp ag	gsp antag	TRPV1 potentiator	D2 PAM	Menin MLL FP FL
O=c1[nH]c2ccc(S(=O)(=O)Nc3ccc(-c4nnc5n4CCCCC5)cc3)cc2o1	0.3%	7%	-8%	10%	14	-9	15
O=C(Cc1ccccc1)NC1CCN(C(=O)NCc2ccccc2)CC1	0.3%	21%	-14%	-7%	-4	-2	4.0
CCOC(=O)c1c(-c2cccc(C)c2)csc1NC(=O)c1c(-c2ccccc2)noc1C	?	-11%	17%	-8%	13	-17	20
COc1ccccc1NC(=O)Nc1nc(CC(=O)NCc2c(F)cccc2F)cs1	0.9%	/	4%	-17%	9	?	/
COc1ccc(CNc2ccc(S(=O)(=O)N3CCN(C)CC3)cn2)cc1OC	0.8%	/	-8%[15.4 µM]	-10%	1	-7	/
O=C(NC1CCCC1)C(c1ccccn1)N(Cc1ccc(F)cc1)C(=O)c1csnn1 (stereo not given)	/	17%	7%	10%	-6	-8	-0.9
O=C(Nc1ccc(-c2cnco2)cc1)c1ccc(F)cc1F	-1.3%	18%	-1%[15.4 µM]	3%	-2	-3	-0.2
CC1=NN(Cc2ccccc2)C(=O)/C1=C/c1ccc(N(C)C)cc1	0.8%	-4%	-26%	9%	9	-8	21
CC(C)S(=O)(=O)c1csc(NC(=O)Nc2ccc(Cl)cc2)c1Cl	/	?	6%[15.4 µM]	-25%	-10	-7	-3.5
CCOc1ccc(C(=O)OCC(=O)NCc2ccco2)cc1OCC	-4.2%	-7%	25%	4%	-13	-5	0.0
O=C(Nc1ccc2c(c1)ncn2-c1ccccc1)c1ccco1	1.5%	32µM*	-7%	-21%	6	7	8.2
CCCC(=O)c1ccc(N2CCC(C)CC2)c(F)c1	0.4%	?	40%	4%	-9	4	3.7
COc1ccc(S(=O)(=O)N2CCN(c3cccc(C)c3C)CC2)cc1	-1.2%	17%	?	-13%	/	-4	2.5
